Screens (PubChem)
Vaccinia Venus: inhibitors of vaccinia virus (Venus reporter); Vaccinia virus Venus reporter expression, fluorescence; Potency, µM (titrated, usually from 36.5 µM), inactives show at the highest dose activity change, negative = inhibition, actives largely listed as inhibitors; 330,000 tested, 0.46% active; active means well fitted inhibition curve with a large enough effect; inconclusive means small, poorly fitted or top-dose-only effect; inactive means no such curve, though single readings can be large or run the other way; tested in A549 cells; also: nearly all actives have a fitted effect of over 30% in size; inactives centre near -10
VACV mCherry inh: vaccinia inhibition (mCherry reporter). AID 720579. Potency, µM (doses to about 36.5 µM), for inactives: top-dose activity change, negative = inhibition, most hits filed as inhibitors. 310,000 tested, 0.63% active. Vaccinia virus mCherry reporter infection, fluorescence; about a quarter of the inactives have no number; active = well fitted inhibition curve with a large enough effect; inconclusive = small, poorly fitted or top-dose-only effect; inactive = no such curve, though single readings can be large or run the other way; tested in A549 cells; also: nearly all actives have a fitted effect of over 35% in size; inactives centre near -10
* hit, by the source's call; i = inactive; ? = inconclusive; . = no result given; & = joins results of further samples; [ ] = another dose, or the depositor's remark. % is scaled to controls: 0 for no effect and ±100 for the full control effect; potency is read from the fitted curve at half-maximal effect.

canonical_smiles	Vaccinia Venus	VACV mCherry inh
CCCCC(CCC(=O)Nc1cc([N+](=O)[O-])ccc1O)C(=O)O (stereo not given)	10%	2%
COc1ccccc1NC(=O)N(Cc1ccco1)Cc1cc2cccc(C)c2[nH]c1=O	-27%	.
Cc1cc(NC(=O)COC(=O)COc2ccc(Cl)c(C)c2)no1	-11%	-4%
Nc1nnc(SCCOc2ccc(Br)cc2)s1	-28%	?
O=C(Nc1nc2cc3c(cc2s1)OCO3)c1ccco1	-7%	i
Cc1cccc(NC(=O)c2ccc(S(=O)(=O)NCc3cccnc3)cc2)c1C	-11%	-19%
O=C(c1ccccc1)N1CCc2cc(CNS(=O)(=O)c3ccccc3Cl)ccc21	-24%	-27%
COC(=O)N(C)C[C@@H]1OCc2cnnn2CCCC(=O)N([C@@H](C)CO)C[C@@H]1C	-5%	i
Cc1cc(SCC(=O)N/N=C/c2ccc(O)cc2O)nc2ccccc12	?	1.1µM*
CC1(Oc2ccc(Cl)cc2)CCN(Cc2ccc(OC(F)(F)F)cc2)C1 (stereo not given)	1%	-22%
CCN(CC)c1ccc(-c2c(C#N)c(N)nc(OC)c2C#N)cc1	-22%	-4%
CC(OC(=O)c1ccccc1)C(=O)NCCC1=CCCCC1 (stereo not given)	-4%	i
COc1ccc(C(=O)Nc2cccc(/C=C(/CCC(=O)O)c3nc4ccccc4s3)c2)cc1	-7%	-14%
CCCN(CCC)C(=O)CSc1nc2c(sc(=S)n2-c2ccc(OCC)cc2)c(=O)[nH]1	-4%	-13%
N#Cc1ccc(NC(=O)COC(=O)c2cccc(S(=O)(=O)N3CCCC3)c2)cc1	-3%	-17%
O=S1(=O)CCOCCCN1Cc1cccc(C(F)(F)F)c1	-15%&-16%	i
CSc1nc(Oc2ccc(F)cc2F)cc(C(F)(F)F)n1	-15%	.
O=C1NC[C@@H](CCCCN2CCN(Cc3ccccc3)C(=O)C2=O)N(Cc2ccccc2)C1=O	5%	7%
O=S1(=O)CC(N2CC=CC2)CN1Cc1cn(Cc2ccc(F)cc2)nn1 (stereo not given)	13%	1%
O=C(Oc1ccccc1)N(c1ccccc1)c1ccccc1	26%	12%
c1ccc(OCCNc2nc(NCC3CC3)nc3ccsc23)cc1	-10%	12%
Nc1nc2[nH]c(=S)[nH]c2c(=O)[nH]1	11%	-18%
CC#CCOC(=O)c1c(C)nc2sc3c(c2c1N)CCC(O)C3 (stereo not given)	-30%	-13%
COc1ccc(CN(Cc2cccnc2)S(=O)(=O)c2ccc(-n3cnnn3)c(OC)c2)cc1	-13%	i
Cc1sc(NC(=O)CSc2nnc(C)c(=O)[nH]2)c(C#N)c1C	-10%	-10%
COC(=O)[C@@]1(C)[C@H]2C(=O)N(Cc3ccccc3)C(=O)[C@H]2[C@H]2CN(C)C(=NC3CCCCC3)N21	-15%	-26%
CC(=O)Nc1ccc(C(=O)OCc2ccc(Br)cc2)cc1	-10%	-19%
Cc1ccc(C(=O)NC(Cc2ccc(C(C)(C)C)cc2)C(=O)O)cc1 (stereo not given)	-14%	i
O=S(=O)(Nc1ccc(Cl)cn1)c1ccccc1	-11%	i
COc1ccc(OCCSc2nc(C)c(Cc3ccccc3)c(=O)[nH]2)cc1	-13%&-17%	-6%&-4%
CCOC(=O)C1=CCN(S(=O)(=O)c2ccc(F)cc2)C1c1ccc(Br)cc1 (stereo not given)	0%	i
Cc1occc1-c1n[nH]c(=S)n1C	-5%	-1%
COc1cc(-c2nnc(-c3cc(-c4ccccc4)nc4ccccc34)o2)cc(OC)c1OC	7%	i
Cc1cc2c(cc1S(=O)(=O)CCC(=O)Nc1cccc(C(F)(F)F)c1)OCC(=O)N2	-18%	i
COc1ccc(S(=O)(=O)N2CCCCC2)cc1NC(=O)CN1C(=O)NC(C)(C2CC2)C1=O (stereo not given)	5%	-4%
COc1ccc(CCNC(=O)Cc2c(C)c3ccc(O)c(C)c3oc2=O)cc1OC	-13%	-18%
CC(=O)OCC(=O)[C@@]1(OC(C)=O)[C@@H](C)C[C@H]2[C@@H]3C[C@H](F)C4=CC(=O)C=C[C@]4(C)[C@@]3(F)[C@@H](O)C[C@@]21C	-9%	i
CC(C)c1ccc(CN(C(=O)/C=C/c2ccco2)C2CCS(=O)(=O)C2)cc1 (stereo not given)	-6%	i
CCc1ccc(S(=O)(=O)NCCc2csc(-c3cccnc3)n2)s1	-24%	i
O=C(CSc1nnc(-c2cccs2)o1)OCc1ccccc1	-4%	i
COc1cc(C(=O)NCC(=O)OCC(=O)c2ccc[nH]2)cc(OC)c1OC	?	?
CCN(CC)S(=O)(=O)c1ccc(C(=O)NCc2ccc3c(c2)cc(C)n3C)cc1	-8%	-6%
OCCN1CCN(c2nc(-c3ccccc3)c3cc(Br)ccc3n2)CC1	-10%	?
O=C(Cc1ccccc1)Nc1ccc(NC(=S)NC(=O)c2ccccc2)cc1	-22%	-12%
Cc1nnc(N(C)C(=O)c2cnccn2)s1	-12%	-17%
CC1=C(C(=O)N2CCN(c3cccc(Cl)c3)CC2)C2(CCCCC2)OC1=O	0%	0%
CCNS(=O)(=O)c1ccc(NC(=O)Cc2ccc(F)cc2)cc1	-3%	-19%
CN(CC(=O)OCC(=O)NC(=O)c1cccn1C)S(=O)(=O)c1ccc(Cl)cc1	-20%	i
Cc1cccc(NC(=O)CSc2nnc(NC(=O)Nc3ccccc3)s2)c1C	-8%[7.34 µM]	-6%[7.34 µM]
COc1ccc([N+](=O)[O-])cc1CSc1nnc(NC(C)=O)s1	10%	-12%
COc1ccc(OCCNc2cc(Cl)ccc2[N+](=O)[O-])cc1	-8%	-11%
O=C(CCCOc1ccc(Cl)cc1)N1CCOCC1	-12%	i
O=C(c1ccco1)N1CCN(C2CN(Cc3ccc([N+](=O)[O-])cc3)S(=O)(=O)C2)CC1 (stereo not given)	-1%	-2%
Cc1ccc(NCC(=O)N/N=C/c2ccncc2)cc1	-10%	-13%
Cc1ccc(NC(=O)C2CCCN2S(=O)(=O)c2cccc3cccnc23)cc1F (stereo not given)	-4%	i
COc1ccc(C2=C(C)C(=NCCCN3CCN(c4cc(C)ccc4C)CC3)NS2(=O)=O)cc1	?	?
COCCN(CCOC)S(=O)(=O)c1ccc(/C(O)=C(\C#N)c2nc3ccccc3[nH]2)cc1	-19%	-18%
CC1=CC(=O)N(c2cccc3c(N4C(=O)C=C(C)C4=O)cccc23)C1=O	1%	i
COc1ccc(CCN2CCCC(CN(C)Cc3cc(OC)c(OC)c(OC)c3)C2)cc1 (stereo not given)	-13%	-17%
COc1ccc(N(CC(=O)NC2CCCCC2)C(=O)c2ccc(C)s2)cc1OC	-18%	-14%

Part of the list above in order of SMILES length, highest first:
canonical_smiles	Vaccinia Venus	VACV mCherry inh
CCN(CC)S(=O)(=O)c1ccc(C(=O)NCc2ccc3c(c2)cc(C)n3C)cc1	-8%	-6%
CCCCC(CCC(=O)Nc1cc([N+](=O)[O-])ccc1O)C(=O)O (stereo not given)	10%	2%
COc1ccc(OCCNc2cc(Cl)ccc2[N+](=O)[O-])cc1	-8%	-11%
CC(=O)Nc1ccc(C(=O)OCc2ccc(Br)cc2)cc1	-10%	-19%
O=C(Oc1ccccc1)N(c1ccccc1)c1ccccc1	26%	12%

Continuation:
canonical_smiles	Vaccinia Venus	VACV mCherry inh
CCc1c(C)c(C#N)c2nc3ccccc3n2c1Nc1cccc(C(F)(F)F)c1	4%	2%
Cc1ccc(CN2c3ccccc3-c3nc(SCC(=O)Nc4c(C)cc(C)cc4C)ncc3S2(=O)=O)cc1	-16%	-21%
CCN(CC)c1ccc([C@H]2[C@@H]3CCCC[C@]3(O)CCN2CC(=O)NCc2ccco2)cc1	-8%	-17%
Nc1nonc1OCCN1CCN(c2ccc([N+](=O)[O-])c3cccnc23)CC1	-9%	?
Cc1ccc(-c2nnc(C)c(N3CCOCC3)n2)cc1	5%	.
CCCNC(=O)NC(=O)CSc1nc2cc(C(=O)OC)ccc2c(=O)n1-c1ccccc1	-7%	.
CSCCCN1CCC(n2nccc2NC(=O)CCCc2ccccc2)CC1	-2%	i
CCc1ccc(OCC(=O)N(Cc2ccc(OC)cc2)C2CCS(=O)(=O)C2)cc1 (stereo not given)	-10%	-5%
Cc1ccc(C(=O)NC(=S)NCC(=O)c2ccccc2)cc1	-19%	-27%
COC(=O)c1nn(-c2c(C)n(C)n(-c3ccccc3)c2=O)cc1O	-10%	i
CNC(=O)COc1ccc(Nc2nnc(-c3ccc(C)c(S(N)(=O)=O)c3)c3ccccc23)cc1	-1%	-12%
O=[N+]([O-])c1ccc(O)c(P(=O)(c2ccccc2)c2ccccc2)c1	-20%	-27%
CCOC(=O)c1cccc(NC(=O)C2CCCO2)c1 (stereo not given)	-25%	.
O=C(NCCN1Cc2ccccc2OC(c2ccsc2)C1)c1cncs1 (stereo not given)	-5%	-11%
COc1ccc(NS(=O)(=O)c2ccc(NC(=S)NC(=O)/C=C/c3ccccc3)cc2)nn1	-13%	-20%
CC(C)(C)NC(=O)C1CCN(c2ccc(S(=O)(=O)N3CCOCC3)cc2Cl)CC1	-12%	i
CCc1ccc(/C=C\C(=O)N2CCCC2)cc1	5%	4%
O=C(c1ccc(Cl)s1)N1CCN(C23CC4CC(CC(C4)C2)C3)CC1	-12%	-14%
CC(C)(C)NC(=O)C(=O)NCCC1=CCCCC1	-12%	-17%
Cc1cccc(NC(=O)CC2NCCNC2=O)c1 (stereo not given)	-14%	-17%
CN1OC[C@@H]2CN(Cc3ccccc3)[C@H](c3ccc(-n4ccnc4)cc3)C[C@@H]21	-8%	-1%
Cc1ccc(S(=O)(=O)N2CCN(C(=O)CN3CCN(C)CC3)C2)cc1	-7%	?
O=C(COc1ccc([N+](=O)[O-])cc1)N1CCC(c2nc3ccccc3s2)CC1	-26%	-23%
CCCCOC(=O)c1ccc(NC(=O)c2ccc3c(c2)CCCN3S(C)(=O)=O)cc1	-19%	i
O=C(N/N=C/c1cccc(OCc2ccccc2)c1)c1ccc(Br)o1	-10%	i
O=C(NCCCN1CCOCC1)c1cn(-c2ccccc2)nc1-c1ccc(F)cc1	-7%	-24%
Cc1cc(NC(=O)NC(=O)c2cccc(OC(F)(F)C(F)F)c2)n[nH]1	-6%	-6%
Cc1cccc(N2CCN(C(=O)COc3noc4nc(C)cc(C)c34)CC2C)c1 (stereo not given)	-15%	-1%
CC(=O)Nc1ccccc1C(=O)C(=O)NCCc1ccccc1	3%	-11%
O=C(COC(=O)C1CC(=O)N(Cc2ccccc2)C1)Nc1ccc([N+](=O)[O-])cc1Br (stereo not given)	-8%	-6%
CCCNC(=O)c1c2c(nc3ccccc13)C(=O)N(C1CCCCC1)C2	-11%	-12%
CCC(=O)Nc1sc(C(=O)Nc2ccccc2OC)c(C)c1C(=O)OC	-2%	i
CCCN1CCN(CCNC(=O)Nc2cc(C)ccc2OC)CC1	-1%	0%
COc1ccc(CCn2c(N)cc(=O)[nH]c2=S)cc1OC	1%	.
Cc1onc(-c2ccccc2)c1C(=O)N1CCCC(C(F)(F)F)C1 (stereo not given)	-13%	-2%
O=C(Cc1c(Cl)cccc1Cl)OCC(=O)N1CCc2ccccc2C1	-10%	i
Cc1cccc(C)c1NC(=S)N(CCCN1CCOCC1)Cc1cccnc1	-3%	-7%
CC(C)C(=O)Nc1ccc(NC(=O)c2ccc([N+](=O)[O-])cc2Cl)cc1	-25%	-17%
C/C(=N/NS(=O)(=O)c1cc(C)ccc1C)c1c[nH]c2ccccc12	-22%	-13%
CN(C(=O)Cn1nc(C(=O)O)c2ccccc2c1=O)c1ccccc1	-17%	-2%
COc1ccc(Cl)cc1NC(=O)C(=O)NCc1ccc(Cl)cc1	8%	-9%
CCOC(=O)N1CCN(S(=O)(=O)c2ccc(C(=O)Nc3nc4ccccc4s3)cc2)CC1	-8%	-12%
O=C(COc1ccccc1F)NNC(=O)c1ccc2c(=O)n3c(nc2c1)CCC3	-7%	-12%
O=C1/C(=C/c2cccs2)SC(=S)N1N1CCOCC1	0%	-3%
COc1ccc(C)cc1N1CC(C(=O)Nc2cccc(C(=O)NC3CC3)c2)CC1=O (stereo not given)	-10%	-22%
C=CCN(C(=O)Cc1cccs1)c1nc(-c2ccc(S(C)(=O)=O)cc2)cs1	-16%	-29%
CCCOc1ccc(OC(=O)c2cn(-c3ccc(OC)cc3)c(=O)c3ccccc23)cc1	-4%	6%
CCN(CC)S(=O)(=O)c1ccc2c(c1)N(CC(=O)NCCCN1CCN(c3ccccc3F)CC1)C(=O)CO2	-12%	-13%
CC(=O)c1cnc2c(-c3ccccc3)c(C(F)(F)F)nn2c1C	-18%	-11%
COC(=O)[C@H](C)NC(=O)Nc1ccc(OC)c(OC)c1	-19%	.
COC(=O)c1ccc(NC(=O)CSc2n[nH]c(CC(C)C)n2)cc1	-6%	-5%
COc1ccc(-c2cc(C(F)(F)F)n3nc(-c4ccccc4)cc3n2)cc1OC	?	-1%
COc1ccccc1-c1cnc(C(O)c2ccc(Cl)cc2)[nH]1 (stereo not given)	-2%	1%
Cc1cccc(-c2cc(-c3ccccc3)nc(SCC(=O)Nc3ccccc3)c2C#N)c1	-15%	-16%
